ugtP null kill – growth inhibition of S. aureus ugtP deletion strain; S. aureus RN4220 ugtP deletion, OD600 growth, 16 h; some inactives read as strong as hits; growth inhibition, % (no concentration beside the values); 330,000 tested, 0.54% active;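 active = z-score under -3 and OD600 up to 0.15 on both plates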;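 note: plate controls were untreated wells for no effect and antibiotic for full effect; wells of about 80 µL received 100 nL stock; the first replicate is given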
BJeLR lethal – BJeLR cell viability loss; BJeLR (HRASV12) viability, CellTiter-Glo ATP luminescence, 48 h; reference of the scale not given here; inhibition, % (concentration not given with the values); 300,000 tested, 0.17% active;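 active = replicate mean above 50%; inconclusive = above 50% but judged a plate artefact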;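 note: 50 nL library stock added to about 25 µL; numbers are from one replicate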
PrP 5UTR inh – suppresses PrP 5' UTR mRNA reporter expression | 340,000 tested, 0.35% active | cell-based PrP 5' UTR mRNA reporter, plate reader | AID 488862 | inhibition, % (no concentration beside the values);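 active = every replicate at 50% or more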;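 note: 0 = median of the neutral control wells; tested in H4 reporter cells; numbers are from one replicate; inactives centre near -14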
Mtb hypoxia inh – inhibitors of hypoxia-regulated fluorescent reporter in Mycobacterium tuberculosis; M. tuberculosis hypoxia-regulated fluorescent reporter, fluorescence; 300,000 tested, 0.1% active; fluorescence inhibition, % (no concentration beside the values);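 active = 35 to 45% if threefold the growth effect, above 45% if 1.5-fold the growth effect; inactive = the rest, general growth blockers included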;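 note: wells of about 50 µL received 100 nL stock; 0% = vehicle wells and 100% = reference inhibitor wells; whole bacteria with a GFP reporter of the hypoxia response; strong numbers were not always called active; many hits fall short of the cut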
Bead autofluor – compound fluorescence in toxin protease inhibitor counterscreen. compound autofluorescence counterscreen, microsphere flow cytometry; hits give high values. fluorescence intensity (test concentration not listed). 360,000 tested, 3.1% active. AID 624483;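 active = at least 3 SD above the mean of all compounds, about 16000 in these data; inconclusive = too few beads counted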;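 note: 100 nL of 1 mM stock went into each well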
Sa RN4220 lethal – kills Staphylococcus aureus RN4220; AID 1259311; inhibition, % (no concentration beside the values); S. aureus RN4220 growth, OD600, 16 h; 330,000 tested, 0.33% active;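 active = z-score of -3 or lower and OD600 up to 0.18 on both plates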;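 note: plate controls were untreated cells for no effect and reference antibiotic for full effect; stock transfer was 100 nL into about 80 µL; one replicate is shown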
Mtb hypoxia inh growth – further read-out of Mtb hypoxia inh, marked with its call; growth inhibition, %; measured here: M. tuberculosis growth (absorbance);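 0% = vehicle and 100% = reference antibiotic; read after six days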
Numbers without * were called inactive; ? = inconclusive; nt = no result given. The order is random; any-hit rate near 4.1%.

SMILES	ugtP null kill	BJeLR lethal	PrP 5UTR inh	Mtb hypoxia inh	Mtb hypoxia inh growth	Bead autofluor	Sa RN4220 lethal
Cc1ccccc1OCC(=O)NCCCNC(=O)c1ccncc1	12	6	5	4	-9	3095	0.0
COCCN=c1scc(-c2cccs2)n1N=C(C)c1ccco1	7	nt	nt	1	10	nt	-2.1
COc1ccc(NS(=O)(=O)c2cc(N)ccc2N2CCCCC2)cc1	6	nt	-5	5	2	6529	7.3
CC(=O)Nc1cccc(C(=O)OCC(=O)N2CCC(c3ccccc3)=N2)c1	5	-11	-44	-4	3	nt	1.9
CCC12C(=O)C(CC)(C(c3ccccc3)=C1c1ccccc1)[C@@H]1C(=O)N(c3ccc(C)cc3)C(=O)C12 (stereo partly specified)	-20	4	-26	8	7	1996	3.6
Cc1cc(N(CCO)CCO)ccc1N=Nc1cc(F)ccc1F	13	8	-80	16	8	3140	-5.7
COc1ccccc1NC(=O)Cc1noc(CSc2nnc(C)n2C)n1	-2	5	-4	11	-3	4410	5.1
Nc1nonc1-n1nnc(C(=O)N/N=C/c2ccoc2)c1CSc1ccc(Cl)cc1	nt	5	-28	nt	nt	5603	nt
COc1ccc(-c2csc(NC(=O)c3ccccc3Br)c2C(=O)O)cc1	-15	3	-17	14	4	4433	14
COc1ccc(-c2nc3ccccc3nc2-c2ccccc2)cc1OC	11	8	-16	4	13	nt	2.5
O=C(c1ccc(C(F)(F)F)cc1)N1CCC(=O)N(C(CO)Cc2ccccc2)CC1 (stereo unspecified)	2	4	-1	1	-3	3051	3.5
CC(C)N1C(=O)CCC1C(=O)N1CCN(c2ccccn2)CC1 (stereo unspecified)	8	-3	-9	1	11	4517	0.2
CC(C)(C)S(=O)(=O)/C(C#N)=N/Nc1ccc(S(C)(=O)=O)cc1	nt	-1	-37	nt	nt	4092	nt
Cc1ccccc1N1C(S)=C(C#N)C(=O)NC12CCCCC2	1	5	-13	13	0	10055	6.8
CCOC(=O)C1=C(N)OC2=C(C(=O)CCC2)C1c1ccco1 (stereo unspecified)	8	5	-14	nt	nt	4360	-0.2
COc1ccc(/C=C/C=N/NC(=O)COc2ccc(OC)cc2)cc1	nt	-6	-30	nt	nt	2165	nt
CC(OC(=O)c1ccc2c(=O)n3c(nc2c1)CCCCC3)C(=O)Nc1ccc(F)cc1Cl (stereo unspecified)	12	-3	-9	12	4	2545	5.3
O=C(CN1CCN(S(=O)(=O)c2ccc(Br)cc2)CC1)c1ccc(O)c(O)c1	-10	0	-8	6	-6	4432	-0.5
Cc1cccc(/N=C/c2sc3ccccc3c2O)n1	nt	7	-41	nt	nt	3687	nt
COc1ccccc1-n1nnnc1SCC(=O)NC1CCCCC1	nt	-2	-15	nt	nt	3381	nt
CCN(C(=O)COC(=O)/C(=C/c1ccccc1)n1nnnc1C)C1CCCCC1	0	8	-5	-1	0	6312	3.0
Clc1ccc(C(c2nnnn2C2CCCC2)N2CCN(Cc3ccncc3)CC2)cc1 (stereo unspecified)	8	2	-4	nt	nt	2469	-4.7
CC(=O)N1CCN(S(=O)(=O)c2cccc(C(=O)NNC(=O)COc3c(C)cccc3C)c2)CC1	6	nt	-2	0	0	3116	-0.5
CCc1ccccc1OCC(=O)N1CCN(c2ncccn2)CC1	4	nt	-12	-7	3	nt	4.0
Cc1ccc(CSCC(=O)Nc2ccc3c(c2)OCO3)cc1	-7	6	-12	9	5	22179*	6.6
Further compounds follow:
SMILES	ugtP null kill	BJeLR lethal	PrP 5UTR inh	Mtb hypoxia inh	Mtb hypoxia inh growth	Bead autofluor	Sa RN4220 lethal
Cc1ccc(S(=O)(=O)Nc2ccccn2)cc1[N+](=O)[O-]	-1	-2	-11	-1	0	4837	1.4
Oc1ccccc1N=Nc1ccccc1O	7	42	37	15	0	4057	13
Cc1nc(C)c(C(=O)Nc2nc3c(C)cccc3s2)o1	0	7	-30	5	4	11102	3.7
NS(=O)(=O)c1ccc(CCNC(=O)CSc2nc3ccccc3c3nc(CCN4CCCCC4)nn23)cc1	-1	-1	-3	-4	-4	4370	-3.7
COc1cccc(/C=C2/C(=O)NN(c3ccccc3)C2=O)c1	13	-1	-19	15	1	3943	1.5
NC(=O)c1cc(Br)cc2c3c([nH]c12)CCCC3	-3	-6	5	-1	-6	3069	0.5
CC(NCCc1ccc(S(N)(=O)=O)cc1)C(=O)NCc1ccccc1 (stereo unspecified)	-1	-6	4	5	5	3373	1.8
O=C(Cc1ncn[nH]1)NCCc1ccccc1	11	-8	5	nt	nt	4842	4.1
CCOc1ccc(-n2c(SCC(=O)Nc3cc(OC)c([N+](=O)[O-])cc3C)nc3ccccc32)cc1	3	-5	-2	-4	-4	2159	4.3
Cc1ccc(CC(=O)N2CCN(Cc3ccccc3)CC2)cc1	2	-10	-17	7	1	2308	0.1
Cc1ncc([N+](=O)[O-])n1CC(=O)Nc1cccc(C(F)(F)F)c1	0	3	-9	0	5	3435	6.3
CN(C)c1cccc(C(=O)NCc2ccc(Cl)cc2)c1	-2	13	-59	4	8	4095	1.9
COc1ccc(NCc2nnc(SCC(=O)c3ccc(OC)cc3)o2)cc1	-8	13	-27	3	9	11208	1.0
COc1ccc(NC(=O)COc2cccnc2[N+](=O)[O-])cc1OC	2	0	-20	-8	4	4430	5.4
N=c1c2c(-c3ccccc3)c(-c3ccccc3)n(Cc3ccco3)c2ncn1CCO	85*	-5	-9	6	14	3830	-0.4
CCC(CC)c1nnc(NC(=O)c2nc3nc(C)cc(C)n3n2)s1	-13	1	-22	-1	14	2897	-0.9
COc1ccc(C=NNC(=O)C(=O)Nc2ccccn2)cc1OC	6	nt	nt	4	3	nt	-0.2
CCOC(=O)c1sc(Nc2nc3ccc(OC)cc3s2)cc1C	25	2	-30	19	11	1911	-6.2
O=C(CN(C(=O)c1csnn1)c1cccc(Cl)c1)NCCc1ccccc1	0	-1	-13	5	0	3134	4.3
COc1ccc(CN2c3cc(S(=O)(=O)N4CCOCC4)ccc3N3CCCC32)cc1 (stereo unspecified)	-7	1	-9	nt	nt	6021	0.3
Cc1ccc(-c2csc(-c3c[nH]c4ccccc34)n2)cc1	89*	6	-73	13	1	2981	6.5
O=C(NN=Cc1cc2cc3c(cc2nc1Cl)OCCO3)c1ccccc1O	3	nt	nt	3	6	nt	16
COc1ccc2[nH]c(=O)c(CNC3CCCCC3)cc2c1	-10	18	-15	13	14	3404	-5.7
O=C(NC(Cc1c[nH]c2ccccc12)C(=O)NN=Cc1ccc(Cl)cc1)c1cccs1 (stereo unspecified)	-27	nt	nt	3	-12	nt	-10
Cc1ccc(-c2nc(N)sc2-c2ccc(C)cc2)cc1	84	2	0	0	5	4072	-13

5 entries picked at random from those above, as already listed:
SMILES	ugtP null kill	BJeLR lethal	PrP 5UTR inh	Mtb hypoxia inh	Mtb hypoxia inh growth	Bead autofluor	Sa RN4220 lethal
Cc1ccc(S(=O)(=O)Nc2ccccn2)cc1[N+](=O)[O-]	-1	-2	-11	-1	0	4837	1.4
O=C(Cc1ncn[nH]1)NCCc1ccccc1	11	-8	5	nt	nt	4842	4.1
CC(NCCc1ccc(S(N)(=O)=O)cc1)C(=O)NCc1ccccc1 (stereo unspecified)	-1	-6	4	5	5	3373	1.8
COc1ccc2[nH]c(=O)c(CNC3CCCCC3)cc2c1	-10	18	-15	13	14	3404	-5.7
Cc1ncc([N+](=O)[O-])n1CC(=O)Nc1cccc(C(F)(F)F)c1	0	3	-9	0	5	3435	6.3

Other records
SMILES	ugtP null kill	BJeLR lethal	PrP 5UTR inh	Mtb hypoxia inh	Mtb hypoxia inh growth	Bead autofluor	Sa RN4220 lethal
Cc1nc2ccccc2n1CC(=O)NC(C)C1CC2CCC1C2 (stereo unspecified)	0	1	-37	-2	16	6089	-3.2
Cc1cc(C)c2nc(NC(=O)c3ccc4c(c3)OCO4)sc2c1	-9	-2	-33	2	8	12198	0.6
CCC(C)NC(=O)CCc1nc2ccccc2n1-c1ccccc1 (stereo unspecified)	8	-1	5	9	-4	1935	2.0
CCn1c(=O)c2cc(C(=O)N(C)c3ccccc3F)sc2c2ccccc21	1	0	-16	13	0	4313	5.2
CC(C)(C)NC(=O)NC(=O)COC(=O)Cc1c(F)cccc1Cl	3	2	-22	16	3	4471	9.2
COc1ccc(NC(=O)CN(C)CC(=O)N(CC(C)C)c2c(N)n(CC(C)C)c(=O)[nH]c2=O)cc1	-1	nt	nt	11	10	nt	8.2
O=S(=O)(c1ccccc1)[C@@]1(c2ccccc2)C[C@@H]2ON=C(c3cccc(Br)c3)[C@@H]2C1	nt	7	-30	nt	nt	3764	nt
CCCCn1c(O)c(C=NC2CCCCC2N)c(=O)[nH]c1=O (stereo unspecified)	9	4	-5	4	-25	2694	17
COC(=O)c1c(NC(=O)Cc2ccccc2)sc2c1C(C(=O)OC)CC2 (stereo unspecified)	8	2	-6	2	2	3592	6.2
COc1ccc(NC(=O)ON=C2c3ccccc3-c3ccccc32)cc1	47	17	-18	7	3	6685	-5.3
CCCSC1=C(C#N)C(c2ccccc2C)C(C(=O)OC)C(=O)N1 (stereo unspecified)	-10	-1	5	-6	-13	9731	-0.8
CC(=NNC(=O)c1ccc(Cl)c(S(=O)(=O)Nc2ccccc2Cl)c1)c1ccncc1	-12	nt	nt	4	3	nt	1.9
Cc1[nH]nc(S(=O)CC(=O)O)c1[N+](=O)[O-] (stereo unspecified)	-2	5	-4	1	14	2411	0.1
Cc1cccn2c(=O)c(C=O)c(Cl)nc12	10	-1	-9	11	7	6140	5.0
COc1cc(C(=O)Nc2ccc(N3CCCS3(=O)=O)cc2)c([N+](=O)[O-])cc1OC	13	7	-23	8	0	18232*	1.7
N#CCc1ccc(NS(=O)(=O)c2ccc(N3CCCC3=O)cc2)cc1	7	2	-17	nt	nt	5916	4.0
CC(C)(C)c1ccc(C=Nn2cnnc2)cc1	0	nt	nt	-3	11	nt	1.3
Cc1cccc(NC(=O)COC(=O)[C@@H]2CCCN2C(=O)c2cccs2)c1	2	nt	-16	7	2	3940	0.6
O=C(O)c1cccc2[nH]c(C(F)(F)F)nc12	-7	11	-8	-4	-2	2941	1.7
C=CC#CC1(O)CC(C)N(C)CC1C (stereo unspecified)	-2	8	-17	11	0	3468	5.9
Cn1c(SCC(=O)N/N=C/c2cccs2)nc2ccccc21	nt	1	-26	nt	nt	11258	nt
CCCCOc1ccc(C(=O)Nc2ccc(C)cc2[N+](=O)[O-])cc1	12	8	-17	7	7	2536	0.8
COc1ccc(C2(C)NC(=O)N(CC(=O)NC(C)c3ccc(CC(C)C)cc3)C2=O)cc1 (stereo unspecified)	3	3	-3	4	0	4079	0.7
Cc1nc(NC(=O)CCc2ccccc2)sc1C	0	1	-41	-4	-1	3713	-4.2
CC(C)c1nc2cc3ccccc3cc2[nH]1	6	5	-22	nt	nt	2913	-1.0
(more compounds)
SMILES	ugtP null kill	BJeLR lethal	PrP 5UTR inh	Mtb hypoxia inh	Mtb hypoxia inh growth	Bead autofluor	Sa RN4220 lethal
COc1ccc(C(=O)N2CCn3c2nc2ccccc23)cc1	-4	-3	-49	-2	1	5903	1.9
O=C(Cn1ncc2c([nH]c3ccccc32)c1=O)NCC1CCN(Cc2ccccc2F)CC1	-2	16	-20	5	2	5793	2.3
CCOc1ccc(C2c3cc(OC)c(OC)cc3CC(=O)N2c2ccc(OC)cc2)cc1 (stereo unspecified)	73	5	-10	-1	-2	10776	-2.2
CCCCn1c(N)c(N(CCOC)C(=O)c2ccc(S(=O)(=O)N3CCCCC3)cc2)c(=O)[nH]c1=O	1	-8	-2	-2	3	?	-1.8
O=C(Nc1c2c(nn1-c1ccccc1)CS(=O)C2)c1ccc(Br)o1 (stereo unspecified)	-2	0	-24	9	0	6460	1.3
COc1ccc(C(=O)c2c(-c3ccsc3)oc3ccc(-c4ccc(OC)cc4)cc23)cc1	2	5	nt	7	12	nt	-3.0
Cc1ccc(NC(=S)Nc2ccc3cn[nH]c3c2)cc1C	-1	nt	-24	5	5	2584	1.8
O=C(CN(CCc1ccccc1)S(=O)(=O)c1ccc(Br)cc1)N/N=C/c1ccc2c(c1)OCO2	nt	3	-18	nt	nt	2228	nt
O=[N+]([O-])c1ccc(NC(=S)N2CCN(c3ccccc3)CC2)cc1	-2	0	-20	8	2	2198	-3.0
CCc1cccc(C)c1NC(=S)N(CCOC)C(C)c1ccco1 (stereo unspecified)	7	10	-6	18	14	3813	9.7
CC(=O)Nc1ccc(C(=O)N/N=C/c2cc(Br)cc(Br)c2O)cc1	nt	-4	-29	nt	nt	4482	nt
N#CCCN(C1CCCCC1)S(=O)(=O)CCOc1ccccc1	0	7	9	7	11	nt	2.8

Source: PubChem
